# VDR inh: vitamin D3 receptor (human) inhibition. AID 504847. 400,000 compounds, 0.93% hits. P11473. VDR-SRC2-3 peptide fluorescence polarization, 2 h. Potency, µM, for inactives: max response, negative = inhibition, most hits filed as inhibitors; active means well fitted inhibition curve with a large enough effect; inconclusive means small, poorly fitted or top-dose-only effect, or another doubt; inactive means no such curve, though single readings can be large or run the other way; further: series mostly up to about 120 µM
# Target sequence (P11473 whole entry, looked up): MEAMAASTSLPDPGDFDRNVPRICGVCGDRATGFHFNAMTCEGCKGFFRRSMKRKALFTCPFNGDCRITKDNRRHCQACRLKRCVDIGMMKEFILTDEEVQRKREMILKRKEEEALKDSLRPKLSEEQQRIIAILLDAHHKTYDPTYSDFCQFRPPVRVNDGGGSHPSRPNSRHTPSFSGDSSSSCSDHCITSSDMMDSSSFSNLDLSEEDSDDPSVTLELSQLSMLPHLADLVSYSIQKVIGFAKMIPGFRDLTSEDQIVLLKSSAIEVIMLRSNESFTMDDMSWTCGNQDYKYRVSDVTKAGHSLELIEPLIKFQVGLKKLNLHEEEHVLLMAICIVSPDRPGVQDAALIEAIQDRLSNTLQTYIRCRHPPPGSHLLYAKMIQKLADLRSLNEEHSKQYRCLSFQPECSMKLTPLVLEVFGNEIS
#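 Signal is fluorescence polarization, reporting how far test compounds block the interaction of VDR with the SRC2-3 coregulator peptide after a 2 h room-temperature incubation.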
# * marks the source's active call; other numbers are inactive results; ? = inconclusive; & = joins results of further samples; [ ] = another dose, or the depositor's remark. On the % scale 0 is the no-effect control and ±100 the full control effect; potency means the concentration at half of the fitted maximal effect. Only part of the results is shown (hit frequency here may not be typical).
VDR inh,Structure
10.5%,Cc1ccc(-n2nc(C)c3c(C)c(CCC(=O)NCc4ccc(Cl)cc4)c(C)nc32)cc1
4.3%,Cc1ccc(NC(=O)Nc2cccnc2)cc1
-18.3%,COc1ccc(-c2csc(Cc3nnc4n3CCCCC4)n2)cc1OC
2.4%,O=C(NCCCN1CCN(c2ccccc2F)CC1)Nc1ccc(F)cc1
?,COCCNC(=O)c1ccc2c(c1)N(Cc1c(F)cccc1Cl)C(=O)c1ccccc1S2
18.4%,Cc1ccc(NN=C2C(=O)OC(C)(C)OC2=O)c(C)c1
-2.5%,Cc1cc2c(cc1S(=O)(=O)Nc1cccc(Cl)c1C)n(C)c(=O)c(=O)n2C
6.0%,O=C(NC1CCCCC1)n1c(=O)oc2ccccc21
18.2%,Fc1cc(Br)ccc1Nc1c2c(nc3nc(-c4cccs4)nn13)CCCC2
1.4%,Cc1ccccc1C(=O)Nc1nc(-c2ccc(Br)cc2)ns1
-5.4%,O=C(Nc1ccc2oc(-c3ccncc3)nc2c1)c1ccco1
-5.5%,COCCCNc1nc2ccccc2nc1NS(=O)(=O)c1cc(Cl)ccc1Cl
-4.6%,CCn1ncc(C2=NOC(C(=O)NCCc3ccccc3)C2)c1C (configuration not stated)
-20.4%,Cc1[nH]c(=S)c(C#N)c(C)c1CC(=O)c1ccc(Br)cc1
14.6%,O=C(O)CCCNC1=NCCC1
2.0%,Cc1cccc(OCC(=O)N/N=C/c2cccn2C)c1
2.1%,CCOC(=O)c1cc(OC(=O)c2ccccc2F)n(-c2ccccc2)n1
-13.5%,CC(C)Cc1nnc(NC(=O)C23CC4CC(CC(C4)C2)C3)s1
-16.9%,O=Nc1ccc(NOC(=O)c2ccccc2Br)cc1
-20.2%,NC(=O)CSc1nnc(Cn2cnc3ccccc32)o1
12.4%,COc1cccc(CN2CCN(Cc3ccccc3C(F)(F)F)CC2)c1
-19.6%,C=CCN(CC=C)C(=O)COn1nnc2ccc(S(=O)(=O)N3CCOCC3)cc21
1.6%,Cc1ccc(/C=N/NC(=O)c2ccncc2)s1
8.5%,COc1ccc2[nH]cc(CCNc3nc(-c4ccccc4CN(C)C)nc4ccccc34)c2c1
-10.0%,Cc1ccc(NC(=S)Nc2ccc(OC(F)F)c(Cl)c2)cc1F
3.8%,CC(C)(C)/C=N/NC(=O)CNC(=O)c1ccc2c(c1)OCCO2
2.1%,O=C(Nc1ccccc1)OCc1cc(-c2ccc(Cl)cc2)on1
14.9%,CC1CCCC(C)N1C(=O)CN1C(=O)C(C)(C)Oc2ccc(C(=O)NC3CCCC3)cc21 (configuration not stated)
-4.8%,CC1=C(C(=O)Nc2ccc(Cl)cc2)C(c2cccs2)n2nc(SCc3cccc(C)c3)nc2N1 (configuration not stated)
8.3%,CCOC(=O)c1c(C)[nH]c(C)c1S(=O)(=O)N1CCC(C(=O)Nc2ccc(OC)c(OC)c2)CC1

# An excerpt of these results, field by field:
> CCOC(=O)c1cc(OC(=O)c2ccccc2F)n(-c2ccccc2)n1
  VDR inh: 2.1%

> NC(=O)CSc1nnc(Cn2cnc3ccccc32)o1
  VDR inh: -20.2%

> COc1cccc(CN2CCN(Cc3ccccc3C(F)(F)F)CC2)c1
  VDR inh: 12.4%

> O=C(Nc1ccccc1)OCc1cc(-c2ccc(Cl)cc2)on1
  VDR inh: 2.1%

# Some of the entries so far, with each value named:
COc1ccc2[nH]cc(CCNc3nc(-c4ccccc4CN(C)C)nc4ccccc34)c2c1
  VDR inh = 8.5%
C=CCN(CC=C)C(=O)COn1nnc2ccc(S(=O)(=O)N3CCOCC3)cc21
  VDR inh = -19.6%
O=Nc1ccc(NOC(=O)c2ccccc2Br)cc1
  VDR inh = -16.9%
Fc1cc(Br)ccc1Nc1c2c(nc3nc(-c4cccs4)nn13)CCCC2
  VDR inh = 18.2%

# Continued:
VDR inh,Structure
1.3%,O=C(CN1CCN(c2ccc(F)cc2)CC1)NCc1ccc(F)cc1
-6.6%,CNc1ccccc(-c2ccc3ccccc3n2)c1=O
7.9%,CC1=CC(C)C2C(=O)N(c3ccccc3)NC(=O)C2C1 (configuration not stated)
-13.2%,O=C(Nc1ccc(CN2CCCCC2)cc1)Nc1ccc(Br)cc1Cl
10.1%,CN(CC(=O)NCc1ccc2c(c1)OCO2)S(=O)(=O)c1ccc(Br)s1
11.1%,CC(OC(=O)CCc1cc(C(C)(C)C)c(O)c(C(C)(C)C)c1)C(=O)NC1CC1 (configuration not stated)
8.0%,CC(C)(C)S(=O)N1Cc2cc(CO)ccc2[C@@H]1CCO (some centres not stated)
7.2%,O=C(c1ccc(N2CCOCC2)nc1)N1CCCCC1
8.0%,COCCNC(=S)N/N=C(\C)c1cccc(OC)c1
?,Cc1ccc(-c2ccc(C(=O)Nc3ccccc3)o2)c2ccccc12
-15.2%,CC(=O)Nc1ccc(NC(=O)C(C)OC(=O)CNC(=O)c2cccs2)cc1 (configuration not stated)
-22.0%,O=C(CN1C(=O)c2ccccc2C1=O)NC1CCC(O)CC1 (configuration not stated)
-2.9%,N#CC1=C(N)Oc2n[nH]c(-c3ccccc3)c2C1c1ccncc1 (configuration not stated)
-2.0%,O=C(c1ccc2ccccc2n1)N1CCN(c2ccccc2Cl)CC1
9.1%,COc1ccc(N(CC(=O)Nc2cc(OC)c(OC)cc2C(=O)O)S(=O)(=O)c2c(C)noc2C)cc1
-13.1%,CCc1cc2c(-c3ccccc3)cc(=O)oc2cc1OC(C)C(=O)NCC1CCC(C(=O)O)CC1 (configuration not stated)
3.2%&4.5%,Cc1cccc(NC(=O)Cn2nnc(C(=O)Nc3ccc(F)c(Cl)c3)c2N)c1
4.8%,Cc1ccc(C2(C)NC(=O)N(CC(=O)Nc3cc(S(=O)(=O)N4CCCCC4)ccc3OC(C)C)C2=O)cc1 (configuration not stated)
-14.7%,CCS(=O)(=O)c1nn2c(N)c(/C=C3/C=CC(=O)C(OC)=C3)c(=O)nc2s1
-2.8%,COc1cccc(Nc2nnc(SCC(=O)N(CC(C)C)CC(C)C)s2)c1
8.4%,Cc1nn(C)c2c1c(C(F)(F)F)cc(=O)n2CC(=O)NCCC(C)C
-1.7%,O=C(c1ccc(CSc2nc3ccncc3n2Cc2ccc(F)cc2)cc1)N1CCCCCC1
12.1%,C=CCN1C(=O)S/C(=C/c2ccc(Sc3nc4ccccc4[nH]3)o2)C1=O
?,CC(=O)N1CCN2C(=O)C1CCCC(=O)c1cc(C(C)C)ccc12 (configuration not stated)
1.3%,CCc1ccc(C(=O)c2cnc3ccc(C)cc3c2S(=O)(=O)c2ccc(OC)cc2)cc1
-1.4%,O=C(Nc1cccc(-c2ccc(N3CCOCC3)nn2)c1)c1ccc(Cl)cc1
-8.3%,CN(C)C(=O)c1ccc(NC(=O)CSc2nnc(-c3ccc4c(c3)OCO4)o2)cc1
1.7%,Cc1ccc(S(=O)(=O)Nc2cccc(C(=O)NCc3ccccn3)c2)cc1F
7.0%,Cc1ccc(S(=O)(=O)Nc2ccc3c(c2)C(=O)N([C@H](C)CO)C[C@H](C)[C@@H](CN(C)C(=O)Nc2ccc(C(F)(F)F)cc2)O3)cc1
4.7%,CCOCCc1nn2c(=O)cc(COC(=O)c3ccccc3NC(=O)c3ccc(C)cc3)nc2s1
0.7%,CCCCN(C(=O)CCCc1nc2ccccc2c(=O)[nH]1)c1c(N)n(CC(C)C)c(=O)[nH]c1=O
-6.9%,CC(C)(C)NC(=O)NC(=O)COC(=O)Cc1coc2ccc3ccccc3c12
-23.4%,C=CCSc1nnc(N2C(=O)C(O)=C(C(=O)c3ccco3)C2c2ccccc2F)s1 (configuration not stated)
-19.7%,Cc1ccc(C)c(Oc2cc(NC(=O)CCCn3nc(C)c([N+](=O)[O-])c3C)cc([N+](=O)[O-])c2)c1
-12.5%,CC1=CN2CC(O)CN=C2C=C1 (configuration not stated)
5.0%,O=C(NNC(=O)c1ccc[nH]1)c1cc(Cl)cc(Cl)c1
-10.5%,NS(=O)(=O)c1ccc(CCN2C(=O)/C(=C\c3ccc(Cl)cc3)SC2=S)cc1
13.3%,CCOc1cc(NC(=O)CCl)c(OCC)cc1NC(=O)CCl
13.8%,CC(C)OP(=O)(OC(C)C)C(NC(=O)c1ccccc1Br)C(N)=O (configuration not stated)
7.8%,C[C@H](NC(=O)[C@H]1N2C(=O)c3ccccc3C2SC1(C)C)C(=O)NCc1ccncc1 (some centres not stated)
-1.4%,COc1ccc(-n2nc(C(=O)N3CCN(c4ccccc4OC)CC3)c3c4ccccc4n(C)c3c2=O)cc1Cl
-19.0%,CCCOc1cccc(C(=O)Nc2cccc(NC(=O)c3ccc(C(C)(C)C)cc3)c2)c1
4.6%,Clc1ccc(Cc2nnc(-c3cccs3)o2)cc1
-7.5%,C[C@@H]1CN([C@@H](C)CO)C(=O)Cc2cc(NC(=O)Nc3cccc4ccccc34)ccc2O[C@@H]1CN(C)Cc1ccc(C(F)(F)F)cc1
2.3%,COc1ccc(C(=O)Nc2nc3nc(-c4ccccc4)cc(=O)n3[nH]2)cc1
0.3%,O=C(NCC1COc2ccccc2O1)c1ccco1 (configuration not stated)
-5.8%,Cc1nn(S(=O)(=O)c2ccc(Cl)cc2)c(C)c1S(=O)(=O)N1CCOCC1
19.6%,CC(=O)Nc1ccc(S(=O)(=O)NCC(=O)OC(C)c2ccccc2Cl)cc1 (configuration not stated)
2.7%,O=C(COC(=O)c1ccc([N+](=O)[O-])s1)NCc1ccccc1
-8.7%,CCOc1ccc(CCNC(=O)c2oc(=O)c3ccccc3c2-c2ccc(C)cc2)cc1OCC
7.3%,COc1ccc(-c2nc3cc(C(C)C)ccc3o2)cc1NC(=O)c1ccccc1[N+](=O)[O-]
4.6%,CCc1nnc(NC(=O)CSc2nnc(-c3cccnc3)n2CC)s1
30.4%[activator],COC(=O)c1ccccc1NC(=O)CNc1cc(Cl)ccc1N1CCOCC1
6.2%,COc1ccc(-c2nc(-c3cccnc3)no2)cc1OC
1.1%,CC(C)CC(N)C(=O)NC(C)C(=O)O (configuration not stated)
-1.6%,CC(C)OCCCNC(=O)CNC(=O)c1cccs1
-5.7%,O=S(=O)(Nc1nc2ccc(S(=O)(=O)N3CCCC3)cc2s1)c1ccc(F)cc1
6.8%,O=C(NC(=S)NNC(=O)[C@H]1C[C@@H]1c1ccccc1)c1cccc(F)c1
-19.7%,COC(=O)C1CCN(CC(=O)NC(=O)Nc2ccccc2F)CC1
2.8%,CCc1ccc(/C=C2\SC(=S)N(CCCC(=O)Nc3nccs3)C2=O)cc1

# Next part.
VDR inh,Structure
-22.1%,CC1(C)C2CC[C@]3(C)C(CC=C4[C@@H]5C[C@@](C)(CO)CC[C@]5(C(=O)O)CC[C@]43C)[C@@]2(C)CC[C@@H]1O (some centres not stated)
1.5%,COC(=O)/C(=C/c1cccnc1)NC(=O)c1ccccc1
-12.0%,COC(C[C@H](O)C[C@@H](O)COCc1ccccc1)OC
12.5%,CC(=O)SCCC(=O)Nc1ccccc1
5.6%,CCOC(=O)C1CCCN(C(=O)c2ccc(Cl)c(S(=O)(=O)N3CCCCC3)c2)C1 (configuration not stated)
4.3%,O=C(CSc1nccn1Cc1ccc(F)cc1)Nc1nc2ccccc2s1
3.4%,O=C(Nc1cccc(F)c1)N1CC[C@@]2(CCCN(C(=O)c3ccco3)C2)C1
-5.8%,O=C(C1CCCN(S(=O)(=O)c2cccc3nonc23)C1)N1CCN(c2ccccc2)CC1 (configuration not stated)
11.4%,Oc1oc(-c2ccccc2)nc1C=NCc1ccncc1
44.7µM*,CN(C)c1ccc(-c2cc(Nc3ccc(F)cc3)ncn2)cc1
-18.5%,O=C(COC(=O)CCC(=O)c1ccc(F)cc1)Nc1ccc2[nH]c(=O)[nH]c2c1
-11.0%,O=C1C=C(c2ccc(-c3ccccc3)cc2)C[C@@H](c2ccc(Cl)cc2)C1
-12.8%,Cc1ccc(N2CCN(CCCCN3C(=O)C4CCCN4C3=O)CC2)cc1 (configuration not stated)
-0.9%,COCc1cc(=O)[nH]c(=S)[nH]1
0.2%,c1ccc(Nc2nc(NCc3ccco3)nc3nccnc23)cc1
-0.3%,O=c1[nH][nH]c2cc(=O)n(-c3ccc(Cl)cc3)nc12
-5.8%,Cc1ccccc1C(=O)Nc1ccccc1NC(=O)c1ccccc1C
-4.5%,Cc1noc(NS(=O)(=O)c2ccc(NC(=O)CCCOc3ccc(Cl)cc3Cl)cc2)c1C
-16.8%,COC(=O)C1=C(C(=O)OC)[C@@H]2N(C)c3ccccc3[C@@]23C[C@@H](CO)N(C(=O)NCCBr)C3=N1
10.0%,O=C(NCc1ccc(N2CCCC2=O)cc1)Nc1ccccc1
-8.9%,CCN(c1ccccc1)S(=O)(=O)c1ccc(OC)c(NC(=O)c2cc(Cl)ccn2)c1
-4.6%,CCC(C)[C@H]1CNCCN1CCc1cccc(F)c1 (some centres not stated)
-22.3%,Cc1cccc(CNc2ncncc2-c2cccc(NS(C)(=O)=O)c2)c1
-2.6%,Cc1noc(C)c1CN1C(=O)NC2(CCc3ccccc3C2)C1=O (configuration not stated)
-1.0%,C=CCn1cc(C(=O)OC)c(=O)c2cc(S(=O)(=O)N(CC)CC)ccc21
2.2%,Cc1ccc(-n2ncc(C(=O)NCCN3CCc4ccccc4C3)c2C2CCN(C(=O)OC(C)(C)C)CC2)cc1C
12.7%,COc1ccc(CCNCC(O)COc2cccc(Br)c2)cc1 (configuration not stated)
-10.4%,O=C(CN1CCc2ccccc2C1)Nc1ccc(F)cc1F
-3.9%,COc1cc(C(=O)NNC(=O)c2cccn2C)cc(OC)c1OC
-1.6%,CCn1c(-c2ccccc2)ccc(C#N)c1=O
-5.9%,COc1ccccc1CNC(=O)CCCn1nc(C)c2c(C)n(-c3ccccc3)nc2c1=O
-3.1%,Cc1ccc2[nH]c(=O)c(CN(Cc3ccccc3Cl)C(=O)N3CCOCC3)cc2c1

# Source: PubChem BioAssay
